Cruzain inh Det: qHTS Assay for Promiscuous and Specific Inhibitors of Cruzain (with detergent); Cruzipain (Trypanosoma cruzi), P25779; purified cruzain, Z-FR-AMC fluorescence, 0.01% Triton; Potency, µM, for inactives: max response, negative = inhibition, usual class: inhibitors; actives 0.43% (n = 200,000);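 also: plate controls were neutral wells for no effect and buffer without enzyme for full effect; nearly all actives have a fitted effect of over 40% in size; top concentration of the series not given in the record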
Target sequence (P25779 123-467 limits assumed): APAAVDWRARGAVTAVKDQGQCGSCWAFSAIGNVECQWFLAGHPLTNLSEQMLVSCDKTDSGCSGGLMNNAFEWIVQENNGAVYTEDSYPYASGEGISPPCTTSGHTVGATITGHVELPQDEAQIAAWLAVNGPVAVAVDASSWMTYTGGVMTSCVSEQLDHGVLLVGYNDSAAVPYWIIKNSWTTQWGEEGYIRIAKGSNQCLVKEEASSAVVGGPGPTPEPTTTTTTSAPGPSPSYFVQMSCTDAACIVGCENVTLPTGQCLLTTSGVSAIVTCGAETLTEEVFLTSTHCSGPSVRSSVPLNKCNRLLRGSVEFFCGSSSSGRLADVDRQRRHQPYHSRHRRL
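Purified cruzain (1.5 nM final) was preincubated with compounds for 15 min at room temperature in 100 mM sodium acetate pH 5.5, 5 mM DTT, 0.01% Triton X-100. Reaction started with 2 uM Z-FR-AMC; AMC fluorescence change over 60 s gave activity.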
Cruzain inh noDet: qHTS Assay for Promiscuous and Specific Inhibitors of Cruzain (without detergent); actives 2.3% (n = 200,000); purified cruzain, Z-FR-AMC fluorescence, no detergent; Cruzipain (Trypanosoma cruzi), P25779; Potency, µM, for the others: max response, negative = inhibition, hits mostly inhibitors;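 also: plate controls were enzyme without inhibitor for no effect and buffer without enzyme for full effect; nearly all actives have a fitted effect of over 40% in size; top concentration of the series not given in the record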
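Purified cruzain at 1.5 nM, pre-incubated 15 min with compound at room temperature in 100 mM sodium acetate pH 5.5, 5 mM DTT, 0.00005% Triton X-100. Reaction started with 2 uM Z-FR-AMC; AMC fluorescence increase over 60 s gives rate.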
RE007 growth inh: qHTS Assay for Inhibitors of the HIV-1 protein Vpr. S. pombe RE007 Vpr strain, BacTiter-Glo ATP luminescence, 24 h; control for the full effect not named in the record. Potency, µM (doses to about 92.2 µM), without a hit: top-dose activity change, negative = less growth. actives 0.21% (n = 360,000). AID 651644, 2012; active = well fitted falling curve with a large enough effect; inconclusive = small, poorly fitted or top-dose-only effect; inactive = no such curve, though single readings can be large or run the other way;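 also: % is scaled to controls: 0 for no effect and ±100 for the full control effect; nearly all actives have a fitted effect of over 50% in size; the assay follows cell death caused by Vpr and the record does not say whether a fall means rescue or toxicity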
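Fission yeast strain RE007, carrying one chromosomally integrated HIV-1 vpr copy, was seeded at OD 0.01 in PMG+AL medium with 23 nL pinned compound. After 24 h at 30 °C and 99% humidity, viability was read by BacTiter-Glo luminescence.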
NS1 inh: qHTS Assay for Inhibitors of Influenza NS1 Protein Function | S. cerevisiae slowed by influenza A NS1, growth recovery by OD600 | AID 2326, 2010 | Potency, µM (series often up to 46.1 µM), without a hit: top-dose activity, positive = more growth | actives 0.4% (n = 270,000); active means well fitted rising curve with a large enough effect; inconclusive means small, poorly fitted or top-dose-only effect; inactive means no such curve, though single readings can be large or run the other way; also: nearly all actives have a fitted effect of over 50% in size
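A cell-based growth assay was used: compounds that relieve NS1-induced slow growth of budding yeast raise OD600. Assay medium was yeast nitrogen base with ammonium sulphate and -URA supplement, pH 6.0, with 2% galactose.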
MARV entry inh: qHTS for inhibitors of binding or entry into cells for Marburg Virus. Potency, µM (highest dose often 37.8 µM), for the others: top-dose activity change, negative = inhibition, most hits filed as inhibitors. actives 1.8% (n = 300,000). Marburg virus pseudotyped entry inhibition, cell reporter; control for the full effect not named in the record; about a third of the inactives were read at about 46 µM; active = well fitted inhibition curve with a large enough effect; inconclusive = small, poorly fitted or top-dose-only effect, or effect the other way; inactive = flat fitted curve, though single readings scatter; tested in HEK293 cells; about a fifth of its hits are not listed in these tables; also: % is scaled to controls: 0 for no effect and ±100 for the full control effect; luciferase read-out
SARS PLpro yeast: qHTS of Yeast-based Assay for SARS-CoV PLP. S. cerevisiae expressing SARS-CoV PLpro, growth rescue; control for the full effect not named in the record. Potency, µM (titrated, usually from 32.9 µM), for inactives: top-dose activity, positive = growth rescue. actives 0.19% (n = 330,000). AID 485353, 2010; active means well fitted rising curve with a large enough effect; inconclusive means small, poorly fitted or top-dose-only effect; inactive means no such curve, though single readings can be large or run the other way; also: 0% is about no effect; nearly all actives have a fitted effect of over 55% in size; growth read by luminescence after 48 h
StopGo reporter: High Throughput Screening for Foot and Mouth Disease Virus Antivirals; human cells with a luciferase reporter of 2A StopGo recoding; control for the full effect not named in the record; Potency, µM (highest dose often 57.9 µM), for inactives: at the highest dose signal change, negative = less light; AID 1159524, 2015; actives 1.2% (n = 410,000); active = well fitted falling curve with a large enough effect; inconclusive = small, poorly fitted or top-dose-only effect; inactive = no such curve, though single readings can be large or run the other way; tested in HEK293T cells; also: % is scaled to controls: 0 for no effect and ±100 for the full control effect; nearly all actives have a fitted effect of over 45% in size; luciferase light after 4 h
LASV entry inh: qHTS for Inhibitors of binding or entry into cells for Lassa Virus | Lassa virus pseudotype entry inhibition, cell reporter; control for the full effect not named in the record | Potency, µM (titrated, usually from 37.9 µM), for the others: at the highest dose activity change, negative = inhibition, hits mostly inhibitors | actives 1.2% (n = 300,000) | AID 540256, 2011; active means well fitted inhibition curve with a large enough effect; inconclusive means small, poorly fitted or top-dose-only effect, or effect the other way; inactive means flat fitted curve, though single readings scatter; tested in HEK293 cells; also: % is scaled to controls: 0 for no effect and ±100 for the full control effect; nearly all actives have a fitted effect of over 50% in size; luciferase read-out
An asterisk follows results filed as active; ? = inconclusive; · = no result given; & = joins results of further samples; [ ] = another dose, or the depositor's remark. Unless noted, calls follow the shape of the dose curve; as a rule, active = well fitted curve in the direction sought with a large enough effect; inconclusive = small, poorly fitted or top-dose-only effect, or another doubt; inactive = no such curve, though single readings can be large; an effect the other way counts as inactive or inconclusive. Potency is read from the fitted curve at half-maximal effect.

SMILES	Cruzain inh Det	Cruzain inh noDet	RE007 growth inh	NS1 inh	MARV entry inh	SARS PLpro yeast	StopGo reporter	LASV entry inh
COc1ccc(NC(=O)CN2c3cccc4cccc(c34)S2(=O)=O)c(OC)c1	-6.5%	-15%	-5%	-1%	-14%	-1%	1%	-15%
CC1CCCCN1c1ccc(N)cc1C(N)=O (stereo unspecified)	·	·	2%	-8%	29%[46.1 µM]	-1%	-12%	0%
CCCOc1ccccc1C1SCC(=O)Nc2c1c(=O)[nH]n2C(C)CCC (stereo unspecified)	3.6%	-2%	20%	-58%	-1%	5%	0%	6%
Nc1ncc(CCN2CCOCC2)c(-c2ccc(F)cc2)n1	·	·	3%	2%	-14%[46.1 µM]	1%	-5%	-12%[46.1 µM]
COc1ccc(-c2cc(C(F)(F)F)nc(S(=O)(=O)CCCC(=O)Nc3cc(C)on3)n2)cc1OC	·	·	1%	·	?	1%	13µM*	?
O=C(Nc1ccc(S(=O)(=O)NCC2CCCO2)cc1)c1ccc(Cl)cc1[N+](=O)[O-] (stereo unspecified)	·	·	0%	1%	?	1%	25%	6%[46.1 µM]
Cc1ccc2c(CC(=O)NCc3ccc4c(c3)OCO4)coc2c1	-2.5%	-2%	-5%	-14%	6%[46.1 µM]	-5%	23%	32%
COc1ccccc1-n1c(SCC(=O)NCc2ccc3c(c2)OCO3)nc2cc([N+](=O)[O-])ccc21	-11%	?	-18%	13µM*	24%	6%	2%	?
O=C1NC(=S)SC1=Cc1ccc(F)cc1	·	·	-16%	·	-1%	·	-8%	?
COc1ccc(Cn2c(=O)[nH]c3cc(C(=O)N4CCN(Cc5ccccc5)CC4)ccc3c2=O)cc1	2.2%	20%	4%	-21%	?	4%	14µM*	-14%
CCOc1ccc(NC(=O)CSc2nnc(-c3ccccc3Cl)n2Cc2ccco2)cc1	0.8%	-13%	1%	-60%	-39%	-1%	?	?
Cc1ccc(NS(=O)(=O)c2ccc(NC(=O)c3ccc(Br)o3)cc2)c(C)c1	-4.0%	6%	-22%	-65%	?	1%	?	?
Cc1c(NC(=O)CCc2ccccc2)cccc1[N+](=O)[O-]	·	·	8%	·	6%[46.1 µM]	-2%	1%	-10%
CCCCn1c(=O)c2oc3ccccc3c2n(Cc2ccc(C)cc2)c1=O	-0.5%	-12%	·	·	·	·	-14%	-2%[46.1 µM]
CCOc1ccccc1/C=C\c1nc(O)c([N+](=O)[O-])c(=O)[nH]1	·	·	9%	5%	·	1%	-2%	·
Cc1nn(C)c(Sc2ccccn2)c1[N+](=O)[O-]	·	·	-11%	4%	0%[14.2 µM]	0%	-7%	25%
CC(NC(=S)Nc1ccc(Cl)cc1Cl)C(c1cccs1)N1CCCC1 (stereo unspecified)	-2.7%	-2%	22%	12%	?	-1%	29%	?
FC(F)(F)Oc1ccccc1-c1nnc(-c2cccc(C(F)(F)F)c2)o1	·	·	7%	0%	-6%[46.1 µM]	2%	-4%	1%
Cc1ccc(NC(=O)c2ccccc2CCc2ccccc2)c(C)c1	-1.8%	-7%	10%	-7%	-11%	6%	·	10%
CC(C)c1ccc(NC(=O)CCCN2C(=S)NC(C)(C)CC2C)cc1 (stereo unspecified)	·	·	-1%	2%	-3%[46.1 µM]	5%	12%	0%[46.1 µM]
N#Cc1cccc(NC(=O)CN2CCN(Cc3ccccc3)CC2)c1	·	·	-18%	-2%	6%[46.1 µM]	-10%	3%	-2%
O=C(CN1C(=O)COc2ccc(S(=O)(=O)Nc3ccccc3)cc21)NCc1ccccc1Cl	-5.5%	-13%	·	·	·	·	9%	1%[46.1 µM]
CC1CCN(C(=S)c2ccc(O)cc2)CC1	-17%	-1%	10%	1%	6%	8%	15%	-16%
COc1ccc2ccccc2c1/C=N/Nc1ccc(Cl)c(C(=O)O)c1	·	·	-25%	13%	2%[46.1 µM]	9%	7%	5%[46.1 µM]
O=S(=O)(Nc1nc2ccc(S(=O)(=O)N3CCCCC3)cc2s1)c1ccccc1	-2.5%	-4%	6%	4%	?	4%	8%	5%
Cc1nnc(C)n1/N=C/c1c(O)ccc2ccccc12	·	·	-4%	-2%	·	-1%	-6%	·
CCC(=O)NC(/C=C/c1ccccc1)c1cc([N+](=O)[O-])c2cccnc2c1O (stereo unspecified)	-0.4%	?	·	-1%	·	2.2µM*	·	·
COc1cccc(/C=C/C(=O)OCC(=O)Nc2nnc(-c3ccccc3)o2)c1	·	·	-4%	·	0%[46.1 µM]	2%	-13%	-5%
O=C(CCS(=O)(=O)c1cccc2nonc12)N1CCOCC1	-0.1%	6%	10%	-1%	5%	3%	-11%	11%
Cc1ccc(NS(=O)(=O)c2ccc(NC(=O)N3CCCCC3)cc2)cc1	·	·	-1%	8%	-6%	6%	6%	-14%
CC(Oc1ccc2c(-c3ccccc3)cc(=O)oc2c1)C(=O)NCCCn1ccnc1 (stereo unspecified)	·	·	-16%	-1%	·	3%	?	·
CSC1=NCCN1C(=O)c1cccs1	-2.0%	-11%	13%	-15%	4%	8%	5%	·
Cc1ccc(Nc2nc(N3CCOCC3)c3ccccc3n2)cc1	-29%	-30%	-4%	-108%	?	-21%	?	?
CC(=O)C1=C(O)C(=O)N(Cc2cccnc2)C1c1ccc(Cl)cc1Cl (stereo unspecified)	1.4%	-5%	13%	4%	3%	19%	·	-7%
COCCC(=O)N1CCC(Oc2ccc(C(=O)NCc3cc(C)n(C)n3)cc2)CC1	·	·	-11%	-2%	·	-3%	-7%	·
N#CC(C#N)=c1ccc2c(c1)N1C(c3ccccc3)=CC(c3ccccc3)C3CCCCC31N=2 (stereo unspecified)	·	·	9%	3%	-2%[46.1 µM]	1%	-6%	-1%
COc1ccc(CNC(=O)CN2C(=O)CCn3nc(-c4ccccc4)cc32)c(OC)c1	-0.7%	-5%	·	·	·	·	-10%	9%[46.1 µM]
COCCN1C(=O)C(=O)/C(=C(/O)c2cccc(OC)c2)C1c1ccncc1 (stereo unspecified)	-3.3%	-7%	28%	-6%	-10%&0%	10%	15%	19%
CCOc1ccc(OCC)c(NC(=O)CCn2cccc2)c1	5.6%	17%	-5%	0%	4%	9%	1%	0%
CCCN(CCC)[C@@H]1CCc2cccc(O)c2C1	5.5%&3.2%&-1.8%	7%&0%&10%	-12%[18.4 µM]	0%&3%	?	1%	-14%&-17%&-16%	?
CCn1c(SCC(=O)Nc2cc(C)on2)nnc1-c1cccs1	0.1%	3%	9%	-31%	-3%	14%	0%	-5%
CCc1cc(CNC(=O)CC2C(=O)NCCN2Cc2ccc(-c3ccccc3)cc2)on1 (stereo unspecified)	·	·	-2%	18%	·	-4%	-11%	·
CCc1ccc(C(=O)Nc2ccc3nn(-c4ccc(C)c(Cl)c4)nc3c2)cc1	0.0%	4%	·	·	?	·	22%	14%[46.1 µM]
Cc1ccc(C(=O)NC2CCCc3ccccc32)o1 (stereo unspecified)	5.5%	-4%	-6%	-1%	11%	1%	-20%	1%
CCOC(=O)c1ccc(NC(=O)CC2C(=O)N(c3cccc(OC)c3)C(=O)N2C2CCCCC2)cc1 (stereo unspecified)	-5.8%	-2%	·	·	?	·	-25%	?
O=C(NNC(=S)Nc1ccccc1)c1cccc(S(=O)(=O)N2CCOCC2)c1	·	·	-4%	6%	10%	0%	125%[activator]	25%
COc1ccc(-c2nc(CS(=O)CC(=O)NC3CCCC(C)C3C)c(C)o2)cc1OC (stereo unspecified)	·	·	-1%	0%	·	13%	-24%	·
O=C(Cc1ccc(Br)cc1)N1CCc2ccccc2C1	·	·	-14%	-26%	·	-2%	65%[activator]	·
Cc1ccc(C#CC[N+]2(C)CCCCC2)cc1	·	·	0%	0%	0%[46.1 µM]	1%	-17%	-2%
O=C(Cn1c(=O)c2cccn2c2cccnc21)N1CCN(c2ccc(Cl)cc2)CC1	·	·	6%	0%	·	0%	?	·
Continued.
SMILES	Cruzain inh Det	Cruzain inh noDet	RE007 growth inh	NS1 inh	MARV entry inh	SARS PLpro yeast	StopGo reporter	LASV entry inh
CCC(C)c1ccc(OCCN2CCCC2)cc1 (stereo unspecified)	-0.1%	3%	-13%	-5%	-30%	-5%	1%	-6%
O=[N+]([O-])c1ccc(N2N=C(c3ccco3)CC2c2ccccc2)cc1 (stereo unspecified)	-6.9%	13µM*	3%	9%	?	-14%	?	?
CCOC(=O)C(CC)Sc1c(CC)cnc2c1c(=O)n(C)c(=O)n2C (stereo unspecified)	-1.0%	-15%	·	·	·	·	-12%	-15%[46.1 µM]
Cc1ccc2c(c1)nnn2C1CCN(C(=O)Nc2ccccc2C)CC1	·	·	-2%	·	0%[46.1 µM]	1%	-7%	-10%
NC(=O)c1ccccc1NC(=O)COC(=O)C1(c2ccccc2)CC1	·	·	2%	·	-1%	-1%	-11%	-14%[46.1 µM]
COCCOC(=O)c1c(C)oc2ccc(O)c(CN3CCC(C)CC3)c12 (tested in a mixture with another compound)	·	·	-7%	·	?	·	?	-28%[46.1 µM]
O=C(Nc1ccc(OC(F)(F)F)cc1)c1cc2c(=O)n3ccccc3nc2s1	-4.1%	-3%	·	·	29%[46.1 µM]	·	-10%	1%[46.1 µM]
COc1cc(NC(=O)Nc2nnc(N3CCCCC3)s2)cc(OC)c1	-7.9%	1%	·	·	-2%[46.1 µM]	·	-4%	-1%[46.1 µM]
COc1ccsc1C(=O)NCCN1CCOCC1	·	·	6%	2%	-1%[46.1 µM]	?	-2%	-6%[46.1 µM]
CCCCN(CC)S(=O)(=O)c1ccc2c(c1)CCCN2C(C)=O	1.4%	-7%	5%	-9%	-2%[46.1 µM]	3%	-3%	4%

Source: PubChem
